Vaccinia pol inh – vaccinia E9 polymerase processive synthesis inhibitors, primary screen, biochemical, absorbance; in vitro processive DNA synthesis, absorbance read-out; active compounds read low; some inactives read as strong as hits; Vaccinia virus DNA polymerase (E9) processive complex; 46,000 compounds, 0.94% hits; AID 493162, 2011; normalized absorbance, % (no concentration beside the values);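 active = replicate mean up to 90% and picked by the depositor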;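 also: 100% = median of the test wells of a plate; 100 nL library stock went into each well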
Active calls of the source: *; & = joins results of further samples. Some of the compounds tested; rates above refer to the full screens.

SMILES | Vaccinia pol inh
O=C1NC(=O)c2cc(-c3ccccc3)ccc21 | 100
Cc1ccc(C(=O)CSc2cnc3ccccc3n2)cc1C | 102
CCN(C(=O)COc1ncnc2ccccc12)C1CCCCC1 | 87
O=C(Nc1cccc(Cl)c1)c1cc(=O)c2ccccc2o1 | 99
CCN(CC)S(=O)(=O)c1cc(C(=O)NC)ccc1Cl | 93
COc1cccc(C2C(C#N)=C(N)Oc3c2c(C)nn3-c2ccccc2)c1 (stereo unspecified) | 100
CC1CC(C)CN(C(=O)CSc2nc3ccccc3c3nc4ccccc4n23)C1 (stereo unspecified) | 99
O=c1c2ccccc2[nH]c(=S)n1CC1COc2ccccc2O1 (stereo unspecified) | 102
CSc1nc(-c2ccc(Cl)cc2)nc(SC)c1Cl | 89
CC(C)(C)n1ncc2c(=O)n(CC(=O)c3ccccc3)cnc21 | 99
CC(C)(C)c1nc2scc(-c3ccc(Br)cc3)c2c(=O)o1 | 103
CC/C(=C(\c1ccccc1)c1ccc(OCCN(C)C)cc1)c1ccccc1 | 96&101
Cc1nn(-c2ccccc2)c2sc(C(=O)N(Cc3ccccc3)Cc3ccccc3)cc12 | 100
CN1C(=O)C(C)(C)c2cc(S(=O)(=O)N3CCCC3)ccc21 | 96
O=C(NC(=O)N1CCCC1)C1CCN(c2cnc3ccccc3n2)CC1 | 101
COC(=O)CSc1nnc(CNC(=O)Cc2ccccc2)n1C | 103
O=C(CSC1CCCC1)c1ccccc1Br | 102
CCOC(=S)Nc1cccc2ccccc12 | 86
CCOC(=O)c1ccc(NC(=O)/C=C/c2cccc(C(F)(F)F)c2)s1 | 100
CS/C(NCC1CC1)=C(/C#N)C(=O)c1ccc(Cl)cc1 | 96
NC(=O)c1sc2nc3c(cc2c1N)CCCC3 | 100
CN(CC(O)Cn1c2ccccc2c2ccccc21)S(=O)(=O)c1ccc(Cl)cc1 (stereo unspecified) | 100
COc1ccc(-n2c(=O)c3c4c(sc3n3cnnc23)COC(C(C)C)C4)cc1 (stereo unspecified) | 97
CCOc1ccc(N2CC(c3nc4ccccc4n3Cc3ccc(F)cc3)CC2=O)cc1 (stereo unspecified) | 92
CCN(CC)C(=O)Oc1ccc(Br)cc1C(=O)Nc1ccc(F)cc1F | 87
O=C(C1CC1)N1CCN=C1SCc1ccccc1 | 93
COC(=O)CC1C(=O)NCCN1C(=O)OC(C)(C)C (stereo unspecified) | 99
c1ccc2c(c1)[I+]c1ccccc1-2 | 15*
CCn1c(-c2cccc(Br)c2)nc2ccccc21 | 100
O=C(Nc1ccc(Cl)cc1)c1ccc(CSc2ncccn2)cc1 | 100
CC1(C)Cc2cccc(OC(=O)c3cncc(Br)c3)c2O1 | 101
C=CCn1c(C(C)NC(=O)C(C)(C)C)nc2ccccc21 (stereo unspecified) | 100
CN1C(=O)C(=Cc2cn(CC(=O)NCc3ccco3)c3ccccc23)C(=O)N(C)C1=O | 98
Cc1sc2nc(SCCC(C)C)nc(N)c2c1C | 100
Cc1cc(NC(=O)c2ccc(Cl)cc2)n(-c2nc3ccccc3s2)n1 | 103
CCN(C(=O)CCn1c(=O)sc2ccccc21)c1ccccc1 | 101

Rewritten comma-delimited: part of the list above.
smiles,Vaccinia pol inh
O=C(Nc1cccc(Cl)c1)c1cc(=O)c2ccccc2o1,99
CCN(CC)S(=O)(=O)c1cc(C(=O)NC)ccc1Cl,93
COc1cccc(C2C(C#N)=C(N)Oc3c2c(C)nn3-c2ccccc2)c1 (stereo unspecified),100
CC1CC(C)CN(C(=O)CSc2nc3ccccc3c3nc4ccccc4n23)C1 (stereo unspecified),99
O=c1c2ccccc2[nH]c(=S)n1CC1COc2ccccc2O1 (stereo unspecified),102

The list continues.
SMILES | Vaccinia pol inh
CC1CCc2c(sc(N)c2C(=O)OC(C)C)C1 (stereo unspecified) | 100
Cc1cc(C(=O)NC2CCCC(C)C2C)n(-c2ccccc2)n1 (stereo unspecified) | 100
Cn1cnnc1SCc1c(Cl)cccc1Cl | 99
CCCCCCCCCCCCCCCC[n+]1ccccc1 | 17*
O=C1N=c2ccccc2=C1c1sc(=S)n(-c2ccccc2)c1O | 100
Cc1cc(-c2nnc(-c3cccc(C(F)(F)F)c3)o2)no1 | 99
C=CC1CCC(O)C(N(C)C(=S)Nc2ccccc2)C1 (stereo unspecified) | 100
Cc1cc2n(n1)C(c1cccc(O)c1O)Nc1c(C)cccc1-2 (stereo unspecified) | 101
C1=CC(c2cccs2)CC1 (stereo unspecified) | 89
CC(C)Nc1nc(-c2cccs2)cc(C(F)(F)F)c1C#N | 102
C(=N/n1cnnc1)/c1cccc2c1OCCCO2 | 100
CCc1ccc(-c2cc3c(=O)n(CC(=O)NCCN4CCOCC4)nc(C)n3n2)cc1 | 95
O=c1cc(-c2ccccc2)[nH]c(=O)[nH]1 | 105
CCOC(=O)COc1c(C#N)sc2c1c(=O)n(-c1ccccc1)c(=S)n2-c1ccccc1 | 112
CN(C)c1ccc(NC(=O)C23CC4CC(C2)CC(n2cnc(Cl)n2)(C4)C3)cc1 | 100
CC(C)Cc1cc(C(=O)NCc2ccco2)no1 | 99
COC(=O)c1ccc(-n2ccnc2)cc1 | 91
CCC1(CC)Cc2ccccc2C(c2cc3ccccc3oc2=O)=N1 | 100
O=C(c1ccccc1)n1nc(-c2ccccc2)nc1NCc1ccco1 | 99
COc1ccc(-c2cn3c(C)c(C(=O)N4CCN(c5ccccc5)CC4)sc3n2)cc1 | 103
CC(C)(Oc1ccc(Cl)cc1)C(=O)Nc1nccs1 | 102
Cn1c2ccccc2n2c(C(=S)Nc3ccccc3)c(-c3ccccc3)nc12 | 98
COc1ccc(C=NCc2ccc(OC)c(OC)c2)cc1OC | 100
CCN1C(=O)/C(=C/N(C(C)=O)c2ccccc2)SC1=S | 91
NC(=O)C1CCN(C(=O)CSc2ncccn2)CC1 | 101
O=C(NC1CCCCCCC1)c1cccn2c(=O)c3cc(Br)ccc3nc12 | 101
CCOC(=O)c1[nH]c(C)c(C(=O)N2CCCCCC2)c1C | 100
CC(C)c1ccc(Nc2nnns2)cc1 | 106
O=C(c1ccc2occc2c1)N1CC=C(c2ccccc2)CC1 | 77
COc1ccc(-c2nsc(SCC(=O)c3ccc(Cl)cc3)n2)cc1 | 102
O=C(NCCO)c1cccc(Cl)c1 | 100
O=C(c1csc2c1CCCC2)N1CCc2ccccc21 | 101
COc1ccc(Cl)cc1C(=O)Nc1nnc(-c2ccc(F)cc2)s1 | 100
CCC(CC)C(=O)N1c2ccccc2CCc2ccccc21 | 100
CC(C)Oc1ccc(CNCCC(c2ccccc2)c2ccco2)cc1 (stereo unspecified) | 101
CCc1nc2sc3c(c2c2nnc(C)n12)CCC3 | 99

An excerpt of these results, as labelled records.
> CCOC(=O)c1[nH]c(C)c(C(=O)N2CCCCCC2)c1C
  Vaccinia pol inh = 100
> CC(C)c1ccc(Nc2nnns2)cc1
  Vaccinia pol inh = 106
> O=C(c1ccc2occc2c1)N1CC=C(c2ccccc2)CC1
  Vaccinia pol inh = 77
> COc1ccc(-c2nsc(SCC(=O)c3ccc(Cl)cc3)n2)cc1
  Vaccinia pol inh = 102

(cont.)
SMILES | Vaccinia pol inh
O=C1c2ccccc2C(=O)N1CC1COc2ccccc2O1 (stereo unspecified) | 93
CCOc1ccc(-n2nnnc2-c2nc3ccccc3s2)cc1 | 124
COc1ccc(N=Cc2ccc(Cl)cc2)cc1OC | 100
NC(=O)C1CCCN(S(=O)(=O)c2ccc(Cl)cc2)C1 (stereo unspecified) | 100
CN1CCC(NCc2ccccc2Cl)CC1 | 95
CC(C)(C)N(Cc1ccccc1)C(=O)CCCN1C(=O)/C(=C/c2cccs2)SC1=S | 100
CCCNC(=O)c1cnn2c(C)cc(C)nc12 | 98
O=C(CC1SC2=NCCN2C1=O)Nc1ccccc1 (stereo unspecified) | 100
CSc1ccc2c(c1)c(=O)nc1n2CCCCC1 | 102
COC(=O)c1nn(-c2ccccc2)c(=O)c2c(N)sc(C)c12 | 99
Cc1ccc(S(=O)(=O)N2CCC(c3c(C)n(CC(=O)N4CCCC4)c4ccccc34)CC2)cc1C | 94
O=C(O)c1cc2[nH]c3c(c2cc1Cl)CCCC3 | 98
Cc1nc(SCCC(=O)O)c2oc3ccccc3c2n1 | 99
COc1cccn(Cc2nnc(SCC(=O)c3ccccc3)o2)c1=O | 97
O=C(COc1ccccc1F)Nc1cccnc1 | 101
Cc1cc(C)nc(/N=C(\N)Nc2ccccc2)n1 | 41*
Cc1ccccc1NC(=O)c1cccc(NC(=O)C(F)(F)F)c1 | 97
COc1ccccc1-c1nnc2ccc3ccccc3n12 | 99
CCCCn1c(CNC(=O)CC)nc2ccccc21 | 101
Cc1ccc(C2CC(c3cccs3)=NN2C(=O)CSc2ncnc3ccccc23)cc1 (stereo unspecified) | 88
CC(C)CCN1C(=O)C=CC1=O | 102
C=CCN1C(=O)CSC1=Nc1ccc(S(=O)(=O)Nc2nccc(C)n2)cc1 | 100
CC(C)N1C(=O)/C(=C/c2ccc(N(C)C)cc2)SC1=S | 91
COC(=O)c1ccc(Oc2ccc(C(F)(F)F)cn2)cc1 | 98
CN1c2ccccc2C(=O)NC1C1CC=CCC1 (stereo unspecified) | 100
Cc1ccccc1NC(=O)Cn1c(C(F)(F)F)nc2ccccc21 | 105
c1ccc2c(-c3nnc4n3CCCCC4)c[nH]c2c1 | 99
CC1(C)CSC(Nc2ccccc2Cl)=N1 | 106
NNC(=O)c1ccc(OCC(O)CO)cc1O (stereo unspecified) | 101
COc1ccc(C(=O)Oc2ccc3c4c(c(=O)oc3c2)CCCC4)cc1OC | 96
COc1cc(NC(=O)NCC2CCN(Cc3cc(C)ccc3C)CC2)cc(OC)c1 | 83
NS(=O)(=O)c1cc2c(cc1Cl)NC(CSCc1ccccc1)=NS2(=O)=O | 101
CSC1=N/C(=C\c2c(C)nn(-c3ccccc3)c2Cl)C(=O)S1 | 100
C[C@H](N)C(=O)N[C@@H](C)C(=O)N[C@@H](Cc1ccccc1)C(=O)CCl | 100
C/C(=N\O)C(=O)NCCc1c[nH]c2ccccc12 | 96
CN=C1CN(O)C(c2ccccc2)=c2cc(Cl)ccc2=N1 | 97
CC(C)CCNC(=O)c1cccc(S(=O)(=O)NCc2ccccc2)c1 | 108
NC1=NC(=Nc2cccc(C(F)(F)F)c2)c2ccccc21 | 99
O=C1C2CC=CCC2C(=O)N1c1cccc2ccccc12 (stereo unspecified) | 98
c1coc(CNC2CCCCCCC2)c1 | 103
CC1C=CCC2C(=O)N(c3cccc(Cl)c3)C(=O)C12 (stereo unspecified) | 99
CC1(C(=O)NC2CCCCC2)Cc2ccccc2C(=O)N1C1CCCCC1 (stereo unspecified) | 98
COc1ccc(Oc2cnc3ccccc3n2)cc1 | 108
CCOc1ccccc1C=Nc1ccc(S(=O)(=O)N2CCc3ccccc32)cc1 | 101
Cc1ccc(-c2nnc(NC(=O)COc3ccccc3)s2)cc1 | 93
CS(=O)(=O)N(CC(=O)NCc1ccccc1)c1cc(C(F)(F)F)ccc1Cl | 101
COC(=O)n1c(SC)nc2ccccc21 | 100
CCN(CC)c1ccc(N=Cc2cc(C)n(-c3ccc(OC(C)=O)cc3)c2C)cc1 | 100
O=C(Cc1ccccc1)NCc1nc(-c2ccccc2)no1 | 82
COc1cc(N=C(SCc2c(C)c(C)c(C)c(C)c2C)N2CCOCC2)c(OC)cc1Cl | 106
N#CC1=C(N)C(C#N)(C#N)C(c2ccccc2)C2CNCC=C12 (stereo unspecified) | 101
CC(CNC(=O)CCc1nnc2n(Cc3ccccc3)c(=O)c3ccccc3n12)c1ccccc1 (stereo unspecified) | 94
O=C(O)/C=C/c1cccs1 | 101
O=c1nc(N2CCOCC2)ccn1Cc1ccc(Cl)cc1 | 88
COC(=O)c1ccccc1NC(=O)CSc1nc2ccsc2c(=O)n1-c1ccc(C)c(C)c1 | 101
CCOC(=O)C1CCN(c2ccccc2CN2CCCc3cc(C)ccc32)CC1 | 99
COc1ccc(C2=NC(=O)/C(=C\c3cccc(F)c3)O2)cc1 | 100
O=C(c1cnc(N2CCCC2)nc1)N1CCCC1 | 93
Cc1onc(-c2ccccc2Cl)c1C(=O)N1CC(C)CC(C)C1 (stereo unspecified) | 100
CCOC(=O)C(C)(C)Sc1nc2c(cnn2-c2ccc(Cl)cc2)c(=O)[nH]1 | 90

The results go on.
SMILES | Vaccinia pol inh
O=C(CN1CCCc2ccccc21)Nc1ccc(Cl)c(Cl)c1 | 100
COC(=O)CC1C(=O)NCCN1C(=O)Nc1ccccc1 (stereo unspecified) | 102
Clc1cccc(CN2CCN(Cc3ccco3)CC2)c1 | 96
CC1CCC(=C(C#N)C(=O)NCc2ccccc2)CC1 (stereo unspecified) | 97
O=C(CN1CCCCC1)Nc1ccc(I)cc1 | 114
Cc1ccc(CNC(=O)C2C3C=CC4(CN(Cc5cccs5)C(=O)C24)O3)cc1 (stereo unspecified) | 98
Cc1[nH]c2ccc(OC(F)(F)F)cc2c1CCNC(=O)C1CC=CCC1C(=O)OC(C)C (stereo unspecified) | 100
CC(c1ccccc1)C1C(C#N)=C(N)Oc2n[nH]c(-c3ccccc3)c21 (stereo unspecified) | 95
CCOC(=O)c1c(/C=C2\C(=O)Nc3ccccc32)c(C)n(-c2ccccc2)c1C | 100
O=C(O)CCNc1nc(-c2ccccc2)c2cc(Br)ccc2n1 | 100
S=C(/C(=C/N1CCOCC1)c1ccccc1)N1CCOCC1 | 103
N#CC1=C(N)OC2=C(C(=O)CCC2)C1c1ccccc1 (stereo unspecified) | 103

Shown with each value named: part of the list above.
CC(c1ccccc1)C1C(C#N)=C(N)Oc2n[nH]c(-c3ccccc3)c21 (stereo unspecified)
  Vaccinia pol inh: 95
S=C(/C(=C/N1CCOCC1)c1ccccc1)N1CCOCC1
  Vaccinia pol inh: 103
Cc1[nH]c2ccc(OC(F)(F)F)cc2c1CCNC(=O)C1CC=CCC1C(=O)OC(C)C (stereo unspecified)
  Vaccinia pol inh: 100
COC(=O)CC1C(=O)NCCN1C(=O)Nc1ccccc1 (stereo unspecified)
  Vaccinia pol inh: 102

Screening results (PubChem BioAssay)
